Screening data: PubChem BioAssay, National Center for Advancing Translational Sciences (NCATS)
SARS PLpro yeast – qHTS of Yeast-based Assay for SARS-CoV PLP; 0.19% of 330,000 active; Potency, µM (doses to about 32.9 µM), for the others: top-dose activity, positive = growth rescue; S. cerevisiae expressing SARS-CoV PLpro, growth rescue; control for the full effect not named in the record; active means well fitted rising curve with a large enough effect; inconclusive means small, poorly fitted or top-dose-only effect; inactive means no such curve, though single readings can be large or run the other way; further: 0% is about no effect; nearly all actives have a fitted effect of over 55% in size; growth read by luminescence after 48 h
2A StopGo – High Throughput Screening for Foot and Mouth Disease Virus Antivirals; human cells with a luciferase reporter of 2A StopGo recoding; control for the full effect not named in the record; Potency, µM (doses to about 57.9 µM), for inactives: at the highest dose signal change, negative = less light; 1.2% of 410,000 active; active = well fitted falling curve with a large enough effect; inconclusive = small, poorly fitted or top-dose-only effect; inactive = no such curve, though single readings can be large or run the other way; tested in HEK293T cells; further: on the % scale 0 is the no-effect control and ±100 the full control effect; nearly all actives have a fitted effect of over 45% in size; luciferase light after 4 h
RE007 growth inh – qHTS Assay for Inhibitors of the HIV-1 protein Vpr; S. pombe RE007 Vpr strain, BacTiter-Glo ATP luminescence, 24 h; control for the full effect not named in the record; Potency, µM (doses to about 92.2 µM), without a hit: at the highest dose activity change, negative = less growth; 0.21% of 360,000 active; AID 651644, 2012; active = well fitted falling curve with a large enough effect; inconclusive = small, poorly fitted or top-dose-only effect; inactive = no such curve, though single readings can be large or run the other way;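 further: on the % scale 0 is the no-effect control and ±100 the full control effect; nearly all actives have a fitted effect of over 50% in size; the assay follows cell death caused by Vpr and the record does not say whether a fall means rescue or toxicity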
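Fission yeast RE007 carrying one integrated HIV-1 vpr copy, seeded at OD 0.01 in PMG+AL medium with 23 nL pinned compound. Grown 24 h at 30 degrees; viability read by BacTiter-Glo luminescence after 5 min.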
* hit, by the source's call; ? = inconclusive; [ ] = remark or other dose. Potency means the concentration at half of the fitted maximal effect. This is a subset; count on the stated rates, not on these rows.

SMILES	SARS PLpro yeast	2A StopGo	RE007 growth inh
O=C(Nc1c[nH]c(=O)[nH]c1=O)c1ccc([N+](=O)[O-])cc1	1.3%	-7.4%	3.4%
CCN(C(=O)CN1C(=O)NC2(CCCc3ccccc32)C1=O)c1ccc(F)cc1 (stereo not drawn)	4.0%	-32.3%	-14.8%
CO[C@H]1CC[C@@]2(C)[C@@H](CC[C@@H]3[C@@H]2CC[C@@]2(C)[C@H]3C[C@H](C(=O)N[C@@H](CCCN=C(N)N)C(=O)NCC(=O)N[C@@H](CC(=O)O)C(N)=O)O[C@]23CCCO3)C1	-2.9%	-0.9%	16.5%
O=C(NC1=NCCS1)c1cccc(S(=O)(=O)N2CCOCC2)c1	1.9%	-21.0%	14.4%
Oc1ccc(/C=C/c2ccc3ccccc3n2)cc1	0.4%	-87.8%	?
O=C(C[C@@H]1C/C=C/CCCC(=O)O[C@H](c2ccccc2)CNC1=O)N[C@H](CO)Cc1ccccc1	5.2%	-10.3%	2.3%
Nc1ccn(CC(=O)NCc2ccccn2)c(=O)n1	-3.2%	-18.0%	11.9%
COc1ccc(CCN(C)S(=O)(=O)c2cn(C)c(=O)n(C)c2=O)cc1OC	4.0%	0.8%	-13.4%
CCc1noc(C)c1C(=O)N1CCN(S(=O)(=O)c2c(C)cc(C)cc2C)CC1	-1.0%	-9.8%	1.8%
COc1cc(OC)c(NC(=O)c2ccc3c(SCC(=O)O)c4c(nc3c2)CCCC4)cc1Cl	-0.2%	-12.4%	0.3%

Taken from the entries so far, 7 compounds:
SMILES	SARS PLpro yeast	2A StopGo	RE007 growth inh
O=C(Nc1c[nH]c(=O)[nH]c1=O)c1ccc([N+](=O)[O-])cc1	1.3%	-7.4%	3.4%
CCN(C(=O)CN1C(=O)NC2(CCCc3ccccc32)C1=O)c1ccc(F)cc1 (stereo not drawn)	4.0%	-32.3%	-14.8%
CO[C@H]1CC[C@@]2(C)[C@@H](CC[C@@H]3[C@@H]2CC[C@@]2(C)[C@H]3C[C@H](C(=O)N[C@@H](CCCN=C(N)N)C(=O)NCC(=O)N[C@@H](CC(=O)O)C(N)=O)O[C@]23CCCO3)C1	-2.9%	-0.9%	16.5%
O=C(NC1=NCCS1)c1cccc(S(=O)(=O)N2CCOCC2)c1	1.9%	-21.0%	14.4%
Oc1ccc(/C=C/c2ccc3ccccc3n2)cc1	0.4%	-87.8%	?
O=C(C[C@@H]1C/C=C/CCCC(=O)O[C@H](c2ccccc2)CNC1=O)N[C@H](CO)Cc1ccccc1	5.2%	-10.3%	2.3%
Nc1ccn(CC(=O)NCc2ccccn2)c(=O)n1	-3.2%	-18.0%	11.9%

(further entries)
SMILES	SARS PLpro yeast	2A StopGo	RE007 growth inh
CC(=O)c1ccc(-c2cccc(-c3nc4ccccn4c3NC3CCCCC3)c2)cc1	6.1%	?	-18.0%
COc1cccc(NC(=S)/C(=C(\[O-])c2ccc([N+](=O)[O-])cc2)[n+]2ccccc2)c1	-0.4%	-2.3%	-2.5%
Cc1ccc(NC(=O)CSc2ncccn2)cc1F	-0.1%	42.5%[activator]	18.7%
COc1ccc(-c2noc(CCC(=O)N3CCN(c4ccccc4OC)CC3)n2)cc1	9.1%	?	-0.3%
O=C(COC(=O)c1c(F)cccc1F)NCc1ccc2c(c1)OCO2	4.6%	-9.4%	-14.8%
O=C(C[C@H]1C/C=C\C[C@H](NC(=O)OCC2c3ccccc3-c3ccccc32)C(=O)O[C@@H](c2ccccc2)CNC1=O)NCCO	-0.2%	-18.3%	0.2%
C[C@H](CO)N1C[C@H](C)[C@@H](CN(C)S(=O)(=O)c2cn(C)cn2)Oc2ccc(NC(=O)Nc3ccc4c(c3)OCO4)cc2C1=O	0.3%	0.0%	-0.2%
Cc1ncc2n1-c1ccc(Cl)cc1C(c1ccccc1F)=NC2	-1.0%	-20.7%	-5.8%
CC1CCC(NC(=O)Cn2cnc3sccc3c2=O)CC1 (stereo not drawn)	3.8%	11.0%	8.6%
C[C@H](CO)N1C[C@H](C)[C@@H](CN(C)S(=O)(=O)c2ccccc2)Oc2ccc(NC(=O)NC3CCCCC3)cc2C1=O	0.1%	-23.4%	0.4%
CCOC(=O)c1ccc2c(c1)nc(SC(C)C(=O)NCC1CCCO1)n2CC (stereo not drawn)	1.5%	-7.1%	-3.7%
CCOc1ccc([C@@H]2CC=C(C(=O)O)[C@H](c3ccc(F)cc3)N2S(=O)(=O)c2ccc(C)cc2)cc1	-3.3%	4.5%	1.9%
O=C(CN1CCN(S(=O)(=O)c2ccc(F)c(Cl)c2)CC1)N1CCNC1=O	-3.9%	-4.1%	8.9%
Cc1cc(NC(=O)CSCC(=O)Nc2nc3ccc(F)cc3s2)no1	12.2%	25.3%	-4.9%
Cc1ccc(C(=O)NN2C(=O)C3C(C2=O)C2C=CC3C23CC3)cc1 (stereo not drawn)	-0.1%	-31.5%	1.6%
COC(=O)[C@@]12CCCCN1[C@H](c1ccc(-c3ccc(F)cc3)c(OC)c1)[C@@H]1C(=O)N(C)C(=O)[C@@H]12	-0.4%	-24.6%	12.5%
O=C(NN=C1CCN(Cc2ccccc2)CC1)c1cc(Br)ccc1O	-9.0%	30.9%[activator]	-12.1%
O=C(Cc1ccc(Cl)cc1)Nc1ccccc1C(=O)Nc1ccc(C(=O)O)cc1	0.6%	-12.4%	0.8%
O=C(Cc1n[nH]c(=O)c2ccccc12)OCC(=O)c1ccccc1	0.3%	-8.4%	13.9%
Oc1ccc(Cl)cc1CNCC1CCCCC1	0.4%	36.8%[activator]	-9.2%
COc1ccccc1N1CCN(CC(=O)Nc2ccccc2C(=O)NCCc2ccccc2)CC1	6.0%	-15.8%	3.1%
CCCCN(C(=O)c1ccc2c(c1)OCO2)c1c(N)n(CC(C)C)c(=O)[nH]c1=O	0.4%	-2.0%	8.1%
C=CC[C@@H](C)CC(=O)C(CCCN=[N+]=[N-])SOOc1ccccc1 (stereo partly drawn)	1.3%	1.1%	-16.4%
CC(OC(=O)c1cccnc1Cl)C(=O)Nc1ccc2c(c1)OCO2 (stereo not drawn)	3.6%	-16.1%	8.2%
C[C@H](CO)N1C[C@H](C)[C@@H](CN(C)S(=O)(=O)c2ccc(F)cc2)Oc2c(NC(=O)CCC(F)(F)F)cccc2C1=O	0.9%	9.5%	1.8%
O=C(C[C@H]1C/C=C\C[C@@H](Cc2ccc(F)cc2)C(=O)OC[C@@H](Cc2c[nH]c3ccccc23)NC1=O)NCCO	-4.8%	16.4%	5.5%
COC(=O)[C@H](CC(C)C)NC(=O)Cn1cnc2c(SC)nc(N)nc21	12.0%	-6.2%	-8.1%
COc1cc2cnc(-c3ccccc3)c(C(=O)c3ccc(OCc4ccccc4)cc3)c2cc1OC	13.9%	16.0%	3.6%
Cc1cccc(NC(=O)COC(=O)CCc2c[nH]c3ccccc23)c1C	-3.2%	-7.7%	-1.8%
COc1ccc(C(=O)N(C)Cc2ccccc2F)cc1S(=O)(=O)N1CCCC1	1.8%	54.2%[activator]	-14.2%
COc1ccc(CSc2ccc(S(=O)(=O)N3CCCCC3)cn2)cc1F	-7.8%	-13.2%	-5.7%
C=C1c2ccccc2O[C@H](C(=O)OCC)[C@@H]1C1CCCCC1	14.2%	-20.5%	-17.2%
CSC1=NCCN1S(=O)(=O)c1ccccc1	0.3%	3.5%	87.9%
COc1ccc(C(=O)COC(=O)C2COc3ccccc3O2)cc1F (stereo not drawn)	-0.1%	2.2%	-8.2%
CCOc1ccc(C(=O)NCC(c2cccs2)N2CCOCC2)cc1 (stereo not drawn)	1.6%	17.2%	-10.9%
CC(=O)N1CCN(S(=O)(=O)c2ccc3c(c2)OCCO3)CC1	3.3%	0.0%	-5.1%
O=C(Cc1cccs1)N/N=C\c1ccc([N+](=O)[O-])s1	-21.2%	21.8%	-10.7%
O=C(NC1CCC(Oc2ccc(C(=O)O)cc2)CC1)NC12CC3CC(CC(C3)C1)C2 (stereo not drawn)	0.2%	-21.3%	-2.4%
COc1ccc(C(=O)OCc2c(F)cccc2Cl)cc1S(=O)(=O)N1CCOCC1	1.1%	21.4%	7.3%
COc1ccc(S(=O)(=O)N2CCN(CC(=O)Nc3sccc3C(N)=O)CC2)cc1OC	-1.7%	?	-16.8%
CCOc1ccc(N(C)S(=O)(=O)c2ccc(C)c(C(=O)NCc3ccccc3OC)c2)cc1	-0.4%	-15.9%	-11.2%
CCC(=O)Nc1nnc(-c2ccc(Cl)s2)o1	5.5%	27.8%	12.6%
COc1ccc(NC(=O)Cc2ccc(C)cc2)cc1S(=O)(=O)N1CCCCC1	-5.3%	22.8%	-16.7%
CCc1ccc(N2CC(C(=O)OCC(=O)Nc3ccc(C#N)cc3)CC2=O)cc1 (stereo not drawn)	-1.1%	-21.7%	13.3%
O=C(COC(=O)c1ccccc1Cl)NC1CCCCCC1	-7.0%	58.1%[activator]	-5.3%
COc1ccc(Nc2ccc(N3C(=O)CCC3=O)cc2[N+](=O)[O-])cn1	0.1%	-11.8%	-4.8%
COC(=O)C1=C(c2ccc(OC(F)(F)F)cc2)C[C@@H]2CC[C@H]1N2C(=O)N1CCC(O)CC1	0.5%	?	2.0%
COc1ccc(C)cc1N1CC(C(=O)Nc2ccccc2N2CCCCC2)CC1=O (stereo not drawn)	-0.7%	-17.1%	-1.1%
CCCC(=O)Nc1ccc(C(=O)COC(=O)C2CC2C)cc1 (stereo not drawn)	1.6%	52.6%[activator]	-2.2%
O=C(Nc1ccc(Cl)c(S(=O)(=O)N2CCCCC2)c1)c1cccnc1	-2.6%	0.0%	3.4%

The listing continues:
SMILES	SARS PLpro yeast	2A StopGo	RE007 growth inh
COC(=O)c1cc(C(=O)NNC(=O)c2ccc3c(c2)OCO3)cc([N+](=O)[O-])c1	8.3%	-24.9%	-8.2%
Cc1c(C(=O)N2CCN(C(=O)c3ccccc3)CC2)oc2ccc(F)cc12	1.6%[6.58 µM]	-23.7%	9.9%
CCOc1ccc(NC(=O)c2cc(C)nc3ccccc23)cc1	-0.5%	13.2%	8.1%
Cc1cccc(NC(=O)NCc2ccc3[nH]c(C)cc3c2)c1	-2.9%	30.2%[activator]	-7.3%
Cc1ccc(C)c(N2CCN(C(=O)CCc3nc(-c4cccc(F)c4)no3)CC2)c1	-3.6%	-18.1%	-2.9%
CC(C)C(=O)N[C@@H]1c2ccccc2CC[C@@H]1O	6.1%	-10.8%	36.8%
COC(=O)c1sccc1NC(=O)/C=C/C(=O)O	0.0%	16.7%	-5.2%
COc1cc2cc(CCOC(=O)c3ccc(F)cc3)oc(=O)c2cc1OC	-0.6%	-11.5%	-6.8%
CCCCCCSc1cccc(-c2nc3cc(C)ccn3c2NC2CCCCC2)c1	0.7%	?	-20.8%
CSc1nc2ccccc2c(=O)n1C1CCOC(C)(C)C1 (stereo not drawn)	-6.8%	-11.8%	8.3%
COc1ccc(NC(=O)Nc2ccc3c(c2)C(=O)N([C@H](C)CO)C[C@H](C)[C@@H](CN(C)C(=O)Nc2c(C)noc2C)O3)cc1	-3.3%	-12.3%	-1.7%
O=C(Cn1cnc2c(NCc3ccccc3)ncnc21)NCc1nc2ccccc2[nH]1	8.5%	-12.2%	8.3%
O=C(NCc1cccs1)C(=O)NCC(c1ccco1)N1CCN(c2ccccc2F)CC1 (stereo not drawn)	1.5%	-14.6%	-2.8%
CCOC(=O)c1sc(NC(=O)CCN2C(=O)C3CCCCC3C2=O)cc1C (stereo not drawn)	4.5%	-19.5%	-2.6%
CC(=O)Nc1ccc(OCC(O)Cn2c(CO)nc3ccccc32)cc1 (stereo not drawn)	-2.5%	-10.2%	-28.6%
C[C@@H]1CN([C@H](C)CO)C(=O)c2cc(NC(=O)Cc3cn(C)c4ccccc34)ccc2O[C@H]1CN(C)S(=O)(=O)c1ccc(F)cc1	3.8%	-8.8%	6.7%
CCN(CC)S(=O)(=O)c1cc(NC(=O)CCn2[nH]c(=O)ccc2=O)ccc1C	3.5%	-22.4%	0.3%
C[C@]12c3[nH]c4cc(-c5ccco5)ccc4c3CCN1C(=O)[C@@H](CC(=O)NCc1cccc(C(F)(F)F)c1)C[C@@H]2C(=O)N1CCOCC1	3.0%	0.0%	-6.4%
O=C(Nc1ccc(Cl)cc1Cl)c1ccc2c(c1)OCCO2	-2.2%	-24.7%	-8.7%
COc1ccc(C(=O)C(C)OC(=O)c2nc3nccc(C)n3n2)cc1 (stereo not drawn)	-4.6%	-9.1%	-0.2%
O=C(COC(=O)c1ccc(Cl)nc1)Nc1ccc2c(c1)OCCO2	-8.4%	-6.9%	7.7%
COC(=O)C1=C(c2cccc(OCc3ccccc3)c2)C[C@@H]2CC[C@H]1N2C(=O)NCCN1CCOCC1	-1.6%	-15.1%	-3.5%
Cc1ccc(OCC(=O)NC2CCCC(C)C2C)c([N+](=O)[O-])n1 (stereo not drawn)	-8.0%	-15.0%	2.2%
O=C1C=C(c2ccc3cc[nH]c3c2)C[C@@H](c2ccc3c(c2)OCO3)C1	-0.1%	37.6%[activator]	7.9%
